MgrA DNA FP – S. aureus MgrA activity modulators, primary screen, biochemical, S. aureus Newman, fluorescence polarization | AID 602314, 2012 | 84,000 compounds, 0.13% hits | inhibition, %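 (about 10 µg/mL by stock and volumes)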 | MgrA-DNA binding;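 active means above 50% in either of two replicates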;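 further: 0% = protein plus DNA without compound and 100% = DNA alone without protein; higher means less MgrA bound to DNA so lower polarization; one replicate is shown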
Sa helicase inh – inhibitors of S. aureus replicative helicase, primary screen, biochemical, fluorescence unwinding readout | replicative DNA helicase (DnaC/DnaB), Staphylococcus aureus | purified S. aureus helicase, fluorescence unwinding assay; about half of the hits fall short of the stated cut | 120,000 compounds, 0.05% hits | inhibition, %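 (tested at about 80 µM)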;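 active means both duplicates at 50% or more, or one of them with a favoured structure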;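 further: 0% = mean of negative control wells and 100% = mean of positive control wells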
* hit, by the source's call; · = no result given; & = joins results of further samples. The list is partial, so the mix of outcomes need not match the whole.

Values run as follows: Sa helicase inh, MgrA DNA FP
1	CC1CCN(Cc2ccc(NC(=O)CCc3nc(C4=CCN(C)CC4)no3)cc2)CC1
 : -9, ·
2	CCCC1CN2CCC3=C(CCC3)C2(C)C1 (stereo not drawn)
 : 3, -1.5
3	Cc1ccc(-n2c(CN)nc3ccccc3c2=O)cc1
 : -12, ·
4	C[N+]1(Cc2ccccc2)CCCC1c1ccc(N)nc1 (stereo not drawn)
 : 12, -2.6
5	Cc1nn(Cc2ccccc2Cl)c(C)c1C(=O)n1nnc2ccccc21
 : 17, ·
6	CC(=O)NC1CC2CCC(C1)N2 (stereo not drawn)
 : 11, 3.5
7	COc1ccc(CNC(=O)C(C)NC(C)=O)cc1 (stereo not drawn)
 : 3, ·
8	CCn1c(SC)nnc1C1CCCNC1 (stereo not drawn)
 : -5, -1.5
9	CN1CCc2c(C#N)c(Cl)nc(NCc3ccccc3)c2C1
 : 16, -0.8
10	CC1CC(C)CN(CC(=O)c2ccccc2Br)C1 (stereo not drawn)
 : -6, ·
11	CN1C(=O)CN=C(c2ccccc2)c2ccccc21
 : ·, 1.0
12	O=C(Nc1ccc2c(C(F)(F)F)cc(=O)oc2c1)c1cc(Cl)cc(Cl)c1
 : ·, -1.6
13	Cc1[nH]c2cc3c(C(F)(F)F)cc(=O)[nH]c3cc2c1C
 : 5, 3.8
14	CCCCC/C=C\C/C=C\C/C=C\C/C=C\CCCC(N)=O
 : ·, 9.0
15	Cn1cccc1CNCCc1ccc(F)cc1
 : 6, -3.5
16	Cc1cc(C(C)(C)C)cc(C)c1CCN
 : -9, ·
17	N#C/C(=C\C(=O)O)c1ccccc1
 : ·, 0.9
18	CC1(C)CC2=NN(c3ccccc3)P(=S)(Nc3nccs3)C2=C(N2CCCC2)C1 (stereo not drawn)
 : 16, ·
19	C(=NC12CN3CN(CN(C3)C1)C2)c1cccnc1
 : 11, 2.6
20	N#Cc1ccc(OCC(=O)N2CCN(C/C=C/c3ccccc3)CC2)cc1
 : -18, -0.2
21	CN1CCC2(CC1)N1CC3(C)CN2CC(C)(C1)C3O (stereo not drawn)
 : -7, ·
22	Cc1cc(OC(=O)N(C)C)cc(=O)n1C
 : ·, 0.6
23	CC(Cc1ccccc1)[n+]1cc(N)on1 (stereo not drawn)
 : 0, -0.2
24	CCSc1nnc(CCNC2CCCCC2)n1C
 : -8, 2.8
25	C[C@]12CCC(=O)C=C1C=CC1C2CC[C@@]2(C)C1CC[C@@]2(O)CCC(=O)O (stereo partly drawn)
 : ·, 0.4
26	Clc1ccc(CO/N=C(\Cn2ccnc2)c2ccc(Cl)cc2Cl)c(Cl)c1
 : ·, 2.5
27	CC1CN=C(NCc2ccncc2)S1 (stereo not drawn)
 : 10, 0.2
28	CN(C)C(=O)Nc1cccc(OC(=O)N(C)C)c1
 : 12, 2.8
29	Cn1c(=O)[nH]c2nncnc2c1=O
 : -8, ·
30	CC1=C(C(=O)OC(C)(C)C)C2(C(=O)Nc3ccccc32)C(C#N)=C(N)O1 (stereo not drawn)
 : ·, 0.6

Pulled by compound from the entries so far:
Values run as follows: Sa helicase inh, MgrA DNA FP
24	CCSc1nnc(CCNC2CCCCC2)n1C
 : -8, 2.8
30	CC1=C(C(=O)OC(C)(C)C)C2(C(=O)Nc3ccccc32)C(C#N)=C(N)O1 (stereo not drawn)
 : ·, 0.6
22	Cc1cc(OC(=O)N(C)C)cc(=O)n1C
 : ·, 0.6
21	CN1CCC2(CC1)N1CC3(C)CN2CC(C)(C1)C3O (stereo not drawn)
 : -7, ·
27	CC1CN=C(NCc2ccncc2)S1 (stereo not drawn)
 : 10, 0.2
28	CN(C)C(=O)Nc1cccc(OC(=O)N(C)C)c1
 : 12, 2.8
23	CC(Cc1ccccc1)[n+]1cc(N)on1 (stereo not drawn)
 : 0, -0.2

The main list resumes, starting two compounds before the break.
Values run as follows: Sa helicase inh, MgrA DNA FP
29	Cn1c(=O)[nH]c2nncnc2c1=O
 : -8, ·
30	CC1=C(C(=O)OC(C)(C)C)C2(C(=O)Nc3ccccc32)C(C#N)=C(N)O1 (stereo not drawn)
 : ·, 0.6
31	CCC(N)C(O)c1ccc(O)c(O)c1 (stereo not drawn)
 : ·, 3.5
32	COc1ccc2c(CN3CC=C(c4ccccc4)CC3)cc(=O)oc2c1
 : 28, ·
33	O=C(Nc1ccc(F)cc1)OC1CN2CCC1CC2 (stereo not drawn)
 : ·, -1.7
34	CNC(C)(C)Cc1ccccc1
 : ·, 3.5&2.6
35	c1ccc2c(C3=NCCO3)c[nH]c2c1
 : ·, -2.7
36	CN1C(=O)C(C(=O)O)C2CC1Oc1ccccc12 (stereo not drawn)
 : -15, 0.6
37	O=C1NC(=O)N(Cc2ccccc2)C(=O)/C1=C/c1ccc2c(c1)OCO2
 : -6, 1.1
38	O=C(c1cn(Cc2nc(-c3cccs3)no2)c2ccccc12)C(F)(F)F
 : 6, ·
39	N#Cc1cccc(C(=O)O)c1
 : -19, -0.6
40	CCOC(=O)C1SC2(C(F)F)CC1(O)c1c(c(OC)c3occc3c1OC)O2 (stereo not drawn)
 : -39, ·
41	O=P1(N2CCOCC2)C=C(c2ccccc2)c2cc(Cl)ccc2O1 (stereo not drawn)
 : -14, ·
42	CC(C)Cc1nc2ccccc2c(=O)n1-c1ccccc1
 : 7, 0.4
43	c1ccc2c(c1)Nc1ccccc1S2
 : 21, ·
44	C=CCN1C(=O)/C(=C/c2ccco2)C(=O)NC1=S
 : ·, 38
45	Nc1ccncc1
 : ·, -0.1&0.0
46	C=CCN1C(=O)NC(=O)/C(=C/c2ccc(OCc3ccc(Cl)cc3)cc2)C1=O
 : ·, 6.0
47	N#Cc1c(/N=C/c2cc(Br)ccc2O)sc2c1C1CCN2CC1
 : 4, 0.2
48	Cc1ccc(C(O)(c2ccc(C)c(C)c2)C2CN3CCC2CC3)cc1C (stereo not drawn)
 : -4, -3.1
49	CCOC(=O)C1=C(N)Oc2cc(C)n(C)c(=O)c2C12C(=O)N(Cc1ccccc1)c1ccccc12 (stereo not drawn)
 : 6, ·
50	CC(Cc1ccccc1)[n+]1cc(/N=C(/N)[O-])on1 (stereo not drawn)
 : -18, 1.1
51	Clc1ccc(NC2=NCCS2)cc1Cl
 : -15, -0.8
52	CC(Cc1ccccc1)N1Cc2ccccc2C1 (stereo not drawn)
 : 1, ·
53	CCN(CC)C(=O)N[C@H]1C[C@@H]2c3cccc4[nH]cc(c34)C[C@H]2N(C)C1
 : ·, -0.1
54	Cc1ccc(C=C(C#N)C#N)c(C)c1
 : 4, 4.7
55	Cc1cc([P+](=O)O)c(C)n1-c1ccc(Br)cc1
 : -2, ·
56	O=C1CCCN2C(=N1)SC(=S)N2CN1CC2CC(C1)c1cccc(=O)n1C2 (stereo not drawn)
 : 8, ·
57	O=C1NC(=O)C(CCc2ccncc2)(CCc2ccncc2)C(=O)N1C1CCCCC1
 : 18, -0.3
58	S=C=NCc1ccco1
 : -25, ·
59	Cc1cc(C)nc(N2CCNCC2)n1
 : -5, 1.2
60	CC(C(=O)Nc1ccc2c(c1)OCCO2)N1CC=C(c2ccccc2)CC1 (stereo not drawn)
 : 6, ·
61	N#CC(C#N)=Cc1ccc(O)cc1
 : ·, 0.9
62	CN(C)CCC(=O)c1ccccc1
 : 1, -12
63	COc1ccc(-c2nc3ccccc3c(=O)o2)cc1
 : ·, 1.5
64	COC(=O)c1ccc2c(c1)nnn2C1CCN(Cc2ccccc2)CC1
 : ·, -2.9
65	C1=C(c2cccnc2)Nc2ncnn2C1c1cccs1 (stereo not drawn)
 : -46, 41
66	Cc1cc(O)ccc1Cl
 : ·, 0.5
67	COCc1cc(OC(=O)N(C)C)nc(-c2ccc(C)c(Cl)c2)n1
 : ·, -2.8
68	CCSC1=NN1c1cc(C)nc(N)n1
 : 7, ·
69	CC(C)n1[nH]c(=O)c2c1NC(=O)CSC2c1ccc(Br)cc1 (stereo not drawn)
 : 3, -1.1
70	C=CCOC(=O)C1=C(C)OC(N)=C(C(=O)OC(C)C)C12C(=O)Nc1ccccc12 (stereo not drawn)
 : ·, -0.1
71	CC(C)OC(=O)C1C(=O)NC23CCCCC2C1c1ccccc1O3 (stereo not drawn)
 : 12, 3.6
72	COc1ccc(N2CCN(C(CNC(=O)Oc3ccccc3)c3cccnc3)CC2)cc1 (stereo not drawn)
 : 4, -0.8
73	COCCn1cc(C(=O)N2CCC3(CC2)OCCO3)c2c3ccccc3n(C)c2c1=O
 : -17, ·
74	COc1ccccc1OCC(=O)N1CCN(C(c2ccccc2)c2ccccc2)CC1
 : 8, 2.2
75	Cc1nc(COc2ccc(/C(N)=N/OC(=O)N(C)C)cc2)cs1
 : -20, ·
76	NS(=O)(=O)c1ccc(N=NN2CCCCCC2)cc1
 : 0, -1.6
77	O=C(O)C1(c2ccc(Cl)cc2)CCC1
 : -1, ·
78	O=c1c2ccccc2[nH]c(=S)n1-c1cccc(C(F)(F)F)c1
 : ·, -0.2
79	CCCn1ncc(C(=O)O)c1C
 : 2, -3.5
80	COc1cc(/C=C2\C(=O)C3CCN2CC3)cc(OC)c1OC
 : ·, 4.1
81	Cc1[nH]c2ccccc2c1C1CCNCC1
 : 6, ·
82	CC(C)c1ccc(NC2=NC(C)(C)CS2)cc1
 : ·, 2.5
83	OC(CNCCC1=CCCCC1)c1ccccc1 (stereo not drawn)
 : -18, ·
84	Cc1ccc2sc(NC(=O)c3ccc(S(=O)(=O)N(CCCl)CCCl)cc3)nc2c1
 : ·, 0.4
85	O=C(OCc1cc(=O)n2ccsc2n1)C(O)(c1ccccc1)c1ccccc1
 : 0, ·
86	OC(c1cccc(Cl)c1)(c1cccc(Cl)c1)C1CN2CCC1CC2 (stereo not drawn)
 : 12, -2.8
87	CC(N)Cc1c[nH]c2cc3c(cc12)OCCO3 (stereo not drawn)
 : 5, ·
88	CC(C)C(C)(N)C#N (stereo not drawn)
 : -13, ·
89	CC1=C(C)C(=O)C(C)=C(C)C1=O
 : 20, ·
90	Cc1ccc2c(c1)c(=O)c1c3n2CCN(CC#N)C3CC1 (stereo not drawn)
 : -5, 2.8

Complete entries as entered above. Order of values: Sa helicase inh | MgrA DNA FP
COc1cc(/C=C2\C(=O)C3CCN2CC3)cc(OC)c1OC is listed with · | 4.1
O=c1c2ccccc2[nH]c(=S)n1-c1cccc(C(F)(F)F)c1 is listed with · | -0.2
O=C(OCc1cc(=O)n2ccsc2n1)C(O)(c1ccccc1)c1ccccc1 is listed with 0 | ·
Cc1ccc2sc(NC(=O)c3ccc(S(=O)(=O)N(CCCl)CCCl)cc3)nc2c1 is listed with · | 0.4
CC(C)c1ccc(NC2=NC(C)(C)CS2)cc1 is listed with · | 2.5

Other compounds
Values run as follows: Sa helicase inh, MgrA DNA FP
91	NC(N)=NOCC[C@@H](N)C(=O)O
 : ·, -0.5
92	CCN1CCN(C(=O)Cc2cccc3ccccc23)CC1
 : -4, 2.1
93	FC(F)(F)c1ccccc1C1NCc2ccccc2-n2cccc21 (stereo not drawn)
 : 20, -5.3
94	COc1ccc(CNCCC2(c3ccccc3)CCOC(C)(C)C2)cc1OC (stereo not drawn)
 : -1, 2.0
95	Cc1ccc(CN(C(=O)NC2CCCC2)C2CCN(Cc3ccccc3)CC2)o1
 : 16, ·
96	CCCOC(=O)COc1cc(C)cc2oc(=O)c3c(c12)CCCC3
 : 2, ·
97	CCCCn1c(C)c(C(=O)O)c2cc(OC)ccc21
 : 9, 2.6
98	CCc1ccc(C2NCc3ccccc3-n3cccc32)cc1 (stereo not drawn)
 : -3, -0.8
99	CN1CCc2c(C#N)c(N)n(N)c(=S)c2C1
 : -4, 161*
100	CCc1cc2c(OC(=O)N(C)C)ncnc2s1
 : ·, 0.3
101	CC(C)CP(=O)(O)c1ccccc1
 : ·, -3.1
102	CN(C)c1ccc(C=C(C#N)C#N)cc1
 : ·, -3.0
103	Cc1nn(Cc2ccccc2)c(C)c1C(=O)OCC(=O)NCc1ccco1
 : 3, ·
104	Cc1ccccc1CNCCc1c[nH]c2ccccc12
 : -12, -3.8
105	CCCc1nc(C)cc(N2CCN(C)CC2)n1
 : -23, ·

The last four records of the section above open the next one:
Values run as follows: Sa helicase inh, MgrA DNA FP
102	CN(C)c1ccc(C=C(C#N)C#N)cc1
 : ·, -3.0
103	Cc1nn(Cc2ccccc2)c(C)c1C(=O)OCC(=O)NCc1ccco1
 : 3, ·
104	Cc1ccccc1CNCCc1c[nH]c2ccccc12
 : -12, -3.8
105	CCCc1nc(C)cc(N2CCN(C)CC2)n1
 : -23, ·
106	c1ccc2oc(C3CCNCC3)nc2c1
 : -24, ·
107	Cn1ccc(P(=O)(N2CCOCC2)N2CCOCC2)c1
 : -1, ·
108	O=C(Nc1ccccc1)N1CCC2(CC1)OCCO2
 : -6, 2.5
109	CC[N+](CC)=c1ccc2ccc(O)cc2o1
 : -54&-17, ·
110	NNc1ccccn1
 : -20, 4.7
111	CC(=O)Nc1ccc(-c2ccccc2)cc1
 : ·, -2.8
112	CCC(=O)OC1(Cc2ccc(CC)cc2)CC(C)N(C)CC1C (stereo not drawn)
 : 2, -0.9
113	CN(C)C(=O)Oc1cc(-c2ccccc2)nc(C2CC2)n1
 : ·, -3.0
114	O=c1[nH]c(CN2CCNCC2)nc2ccccc12
 : -5, 0.3
115	O=S(=O)(c1ccccc1)N1CCCCC1c1cccnc1 (stereo not drawn)
 : ·, 1.1
116	CC1OC(O[C@H]2C[C@@H](O)[C@]3(CO)[C@H]4[C@H](O)C[C@]5(C)[C@@H](C6=CC(=O)OC6)CC[C@]5(O)[C@@H]4CC[C@]3(O)C2)C(O)C(O)C1O (stereo partly drawn)
 : ·, 2.8
117	Cc1ccccc1CN1CCN(C(C)C)CC1
 : 4, 0.8

Bioassay records (PubChem BioAssay)
